Screening results from PubChem BioAssay.
Ecoli rRNA inh: inhibits bacterial ribosomal RNA function over humanized ribosomes. AID 720706. GFP signal change (wild-type ribosome), % (concentration not given with the values). actives 1.6% (n = 350,000). E. coli WT GFP vs humanized-ribosome RFP mutants, fluorescence, 24 h; stronger effect = lower value; DMSO median 0, no signal -100;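 active means significant combined selectivity score with lowered wild-type GFP, culture density cut under 30%, mutant RFP and density less affected; inactive means any of these conditions unmet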; further: one replicate is shown; some compounds called inactive have numbers as strong as hits
FGF22 binding: binders of recombinant human FGF22 by thermal shift; SYPRO orange fluorescence; percent of sucrose octasulfate shift, DMSO zero; calls only at 9.99 µM; actives 1.5% (n = 340,000); AID 651658;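 active means melting point raised past a set limit in the mean and every replicate; three in four hits are not shown here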
Target sequence (Q9HCT0 whole entry, looked up): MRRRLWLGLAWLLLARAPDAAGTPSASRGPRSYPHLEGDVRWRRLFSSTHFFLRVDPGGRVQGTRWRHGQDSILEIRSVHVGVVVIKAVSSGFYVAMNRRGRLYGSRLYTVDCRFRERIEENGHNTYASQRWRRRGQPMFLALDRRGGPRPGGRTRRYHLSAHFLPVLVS
Beta apoptosis: blocks beta cell apoptosis | INS-1E cytokine-induced death, ATP luminescence, 48 h; percent of positive-control rescue, neutral wells zero | protection from apoptosis, % (test concentration not listed) | actives 0.8% (n = 300,000) | AID 435005;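 active means all replicates at 75% or more, or half of them and the mean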;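 further: 0% = cytokine-treated negative control wells and 100% = positive control rescue; higher means more ATP so stronger rescue from cytokine killing; wells of about 40 µL received 100 nL stock; the first replicate is given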
E coli growth: blocks Escherichia coli growth | OD600, 23 h; stronger effect = lower value | OD600 absorbance (concentration not given with the values) | actives 0.21% (n = 330,000) | AID 1053175;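 active means OD600 absorbance below the run mean of sample wells minus 3.6 SD, in any replicate, cut at about 0.56 in these data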;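 further: stock transfer was 300 nL into about 60 µL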
AF4-AF9 inh: blocks AF4 peptide binding to human AF9; P42568; AlphaScreen, biotin-AF4 peptide binding to FLAG-AF9; inhibition, % at 10 µM; actives 0.47% (n = 350,000);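 active means every replicate reaching a set inhibition limit, whatever the replicate mean, cut at about 25% in these data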;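 further: 0% = plate neutral control median and 100% = total signal loss; the record names both 10 and 1 µM as test concentration; the first replicate is given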
Target sequence (P42568 whole entry, looked up): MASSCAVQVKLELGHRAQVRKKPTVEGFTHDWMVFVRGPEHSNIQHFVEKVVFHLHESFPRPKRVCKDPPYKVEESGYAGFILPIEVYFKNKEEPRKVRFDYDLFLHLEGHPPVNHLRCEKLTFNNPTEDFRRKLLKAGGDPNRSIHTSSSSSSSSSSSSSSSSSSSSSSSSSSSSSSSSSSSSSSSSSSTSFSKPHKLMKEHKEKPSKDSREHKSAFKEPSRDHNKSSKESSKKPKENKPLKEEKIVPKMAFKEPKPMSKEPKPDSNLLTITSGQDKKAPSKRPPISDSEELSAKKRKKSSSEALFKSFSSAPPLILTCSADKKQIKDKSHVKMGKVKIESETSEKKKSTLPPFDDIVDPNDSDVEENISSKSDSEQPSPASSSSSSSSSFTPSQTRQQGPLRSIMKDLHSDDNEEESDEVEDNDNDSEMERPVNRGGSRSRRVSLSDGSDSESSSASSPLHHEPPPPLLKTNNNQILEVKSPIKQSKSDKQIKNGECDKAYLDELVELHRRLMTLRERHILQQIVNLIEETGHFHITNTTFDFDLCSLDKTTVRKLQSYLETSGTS
UCH37 DUB inh: human UCH37 deubiquitinating enzyme inhibition; actives 0.33% (n = 330,000); purified proteasome/UCH37, Ub-AMC cleavage fluorescence; inhibition, % (no concentration beside the values); AID 588478;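 active means mean of two replicates above 20%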;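 further: 0% = compound-free wells with enzyme and 100% = wells lacking proteasome; stock transfer was 100 nL into about 20 µL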
Target sequence (Q9Y5K5 whole entry, looked up): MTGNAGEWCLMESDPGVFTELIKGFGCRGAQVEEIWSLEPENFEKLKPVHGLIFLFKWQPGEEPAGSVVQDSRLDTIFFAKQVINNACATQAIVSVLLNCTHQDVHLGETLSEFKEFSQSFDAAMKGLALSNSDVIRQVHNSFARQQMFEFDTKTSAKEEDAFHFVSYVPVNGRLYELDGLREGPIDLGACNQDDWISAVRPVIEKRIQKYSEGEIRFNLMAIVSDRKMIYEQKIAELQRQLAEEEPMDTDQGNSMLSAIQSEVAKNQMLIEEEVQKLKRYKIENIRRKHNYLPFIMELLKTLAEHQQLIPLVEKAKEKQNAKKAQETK
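Material: Human UCH37 enzyme supplied as purified proteasome complex | Schedule: 30 min compound-proteasome preincubation then 25 min substrate reaction, room temperature | Detection: AMC fluorescence from Ub-AMC cleavage, excitation 355 nm, emission 460 nm | Benchmarks: Wells without proteasome as full block, compound-free enzyme plus substrate as uninhibited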
T cruzi repl: T. cruzi replication inhibition. T. cruzi beta-gal in NIH3T3, luminescence, 90 h. inhibition, % (concentration not given with the values). actives 1.4% (n = 300,000);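 active means mean inhibition across valid replicates above about 55%, limit read from the data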;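 further: signal also drops with host cell toxicity which is not excluded here; 0% = plate median of DMSO wells and 100% = zero luminescence signal; higher percent means less beta-gal luminescence so fewer parasites; stock transfer was 50 nL into about 50 µL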
Bfl-1 A1 inh: inhibitors of the anti-apoptotic protein A1, read as caspase activation | MEF A1-2A-BIM cells, Caspase-Glo 3/7 luminescence, 3 h; percent of clofoctol response, vehicle zero | caspase activation, % (concentration not given with the values) | actives 0.066% (n = 330,000);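 active means over half of replicate activation scores above 10%, or exactly half above 10 with the replicate mean above 10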;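 further: wells of about 30 µL received 50 nL stock; many hits fall short of the cut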
Ecoli rRNA inh OD600: recorded beside Ecoli rRNA inh, whose call it bears; OD600 change, %; measured here: OD600 growth;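 optical density of the mix in the first replicate; 0 = DMSO median and -100 = no signal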
Ecoli rRNA inh RFP: recorded beside Ecoli rRNA inh, whose call it bears; RFP signal change, %; measured here: RFP humanized mutant strains;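 first replicate; 0 = DMSO median and -100 = no signal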
* marks the source's active call; other numbers are inactive results; i = inactive; x = not tested or not shown; & = joins results of further samples.

SMILES | Ecoli rRNA inh | Ecoli rRNA inh OD600 | Ecoli rRNA inh RFP | FGF22 binding | Beta apoptosis | E coli growth | AF4-AF9 inh | UCH37 DUB inh | T cruzi repl | Bfl-1 A1 inh
O=C(NC(=S)Nc1nc(-c2cccc([N+](=O)[O-])c2)cs1)c1ccccc1Cl | -19* | -2.8* | 1.9* | i | 1 | 0.69 | 1.1 | 2.6 | 15 | -0.3
CCOC(=O)CC1=C(C(=O)OCC)C(c2cccs2)C(C#N)=C(N)O1 (centres undefined) | x | x | x | x | -6 | 0.69 | x | -0.6 | -7 | 0.2
O=S(=O)(c1cccc(S(=O)(=O)N2CCN(c3ncccn3)CC2)c1)N1CCOCC1 | x | x | x | x | -6 | 0.72 | x | -1.9 | -5 | 1.2
CCCNC(=O)c1n[nH]c2c1CC(C(C)(C)CC)CC2 (centres undefined) | 2 | 7 | 3.0 | i | -14 | 0.68 | -10 | 1.5 | x | 0.8
O=C(C(c1ccccc1)c1ccccc1)N1CCN(Cc2ccco2)CC1 | -6 | -5 | -2.5 | i | 3 | 0.62 | 9.0 | 3.5 | -18 | -0.2
CCc1ccc2[nH]c(=O)c(C(c3nnnn3CCOC)N3CCN(c4ccccc4)CC3)cc2c1 (centres undefined) | x | x | x | x | -3 | 0.7 | x | -4.3 | 2 | -0.3
Cc1c(C(=O)OCC(C)C)[nH]c2c1C(=O)CC(c1cccs1)C2 (centres undefined) | x | x | x | x | 17 | 0.7 | x | 4.8 | 55* | 0.0
O=c1[nH]c(C2CCCN(S(=O)(=O)c3ccccc3)C2)nc2c1nnn2Cc1ccccc1F (centres undefined) | x | x | x | x | 13 | 0.71 | x | -1.5 | 9 | 0.1
c1ccc(-c2nnc(OCc3cccnc3)c3ccccc23)cc1 | -56 | -80 | -18 | x | 0 | 0.64 | 1.8 | 0.8 | -8 | 0.1
Cc1ccc(S(=O)(=O)c2c(C)cc(C)nc2Cl)cc1 | x | x | x | x | -8 | 0.73 | x | 0.6 | 7 | 0.1
COc1ccc(N(S(=O)(=O)c2ccccc2)S(=O)(=O)c2ccccc2)c(N)c1 | -7 | -17 | -6.9 | i | 1 | 0.71 | 3.4 | 0.0 | 14 | 2.1
O=C(NC1CCCCC1)NC1CCN(S(=O)(=O)c2ccc3c(c2)OCCO3)CC1 | x | x | x | x | -1 | 0.66 | x | -0.5 | -14 | 0.1
Cc1ccc(NC(=O)c2ccco2)c(NC(=O)c2ccccc2C)c1 | -1 | -1 | 0.2 | i | -1 | 0.7 | 0.3 | 3.8 | -2 | 0.6
Cc1occc1-c1nnc(SCC(=O)c2ccc(F)cc2)o1 | x | x | x | x | -2 | 0.72 | x | 3.8 | 25 | -0.3
COc1cc(C(=O)OCC(=O)N2CCC(C)CC2)cc2c1OCCO2 | -2 | -3 | -2.7 | i | -8 | 0.7 | 0.6 | 4.2 | x | 0.4
COc1ccc(-n2nnc3c(=O)n(CC(=O)NCC4CCCO4)cnc32)cc1 (centres undefined) | x | x | x | x | -4 | 0.72 | x | 0.8 | -17 | 0.5
Cc1ccccc1OCCn1nc(C(=O)O)c2ccccc2c1=O | x | x | x | x | 3 | 0.72 | x | 0.0 | -7 | -1.1
NC(=O)CCCc1nc(-c2ccccc2)no1 | 6 | -5 | -4.3 | i | 0 | 0.65 | -2.2 | 4.5 | 5 | -0.3
CC1=C(C(=O)Nc2ccccc2)C2(CCCCC2)C(C(N)=O)C(=S)N1 (centres undefined) | x | x | x | x | -4 | 0.72 | x | 10.0 | -7 | 2.1
Cc1ccc(S(=O)(=O)N(CC(=O)N/N=C\c2cccs2)c2cccc3cccnc23)cc1 | x | x | x | i | -4 | x | 3.6 | x | 13 | -1.0
CCCCC1CCC(C(=O)N(C)CC(=O)Nc2cccc(F)c2)CC1 (centres undefined) | 3 | 1 | -2.0 | i | -4 | 0.68 | -1.7 | 0.3 | 15 | 0.6
NC(=O)C1CCN(c2oc(-c3ccccc3F)nc2S(=O)(=O)c2ccc(Cl)cc2)CC1 | x | x | x | x | x | 0.77 | x | 6.1 | 13 | 0.4
O=C(Cc1ccccc1)NC(Nc1ccccc1)C(Cl)(Cl)Cl (centres undefined) | x | x | x | x | -4 | 0.78 | x | 1.9 | -6 | 1.0
COc1ccc(C2CC(c3ccc4ccccc4c3)=NN2C(=O)CN2C(=O)CCC2=O)cc1 (centres undefined) | -1 | 16 | -3.5 | i | -5 | 0.73 | 9.9 | -14 | 19 | -0.5
c1ccc(-c2cc3n(c2)CCc2ccccc2-3)cc1 | x | x | x | x | 6 | 0.75 | x | -2.8 | 15 | 0.9

Seven entries from above, with two lines to a compound:
The line under a structure holds: Ecoli rRNA inh, Ecoli rRNA inh OD600, Ecoli rRNA inh RFP, FGF22 binding, Beta apoptosis, E coli growth, AF4-AF9 inh, UCH37 DUB inh, T cruzi repl, Bfl-1 A1 inh
CCOC(=O)CC1=C(C(=O)OCC)C(c2cccs2)C(C#N)=C(N)O1 (centres undefined)
→ x, x, x, x, -6, 0.69, x, -0.6, -7, 0.2
O=S(=O)(c1cccc(S(=O)(=O)N2CCN(c3ncccn3)CC2)c1)N1CCOCC1
→ x, x, x, x, -6, 0.72, x, -1.9, -5, 1.2
CCCNC(=O)c1n[nH]c2c1CC(C(C)(C)CC)CC2 (centres undefined)
→ 2, 7, 3.0, i, -14, 0.68, -10, 1.5, x, 0.8
O=C(C(c1ccccc1)c1ccccc1)N1CCN(Cc2ccco2)CC1
→ -6, -5, -2.5, i, 3, 0.62, 9.0, 3.5, -18, -0.2
CCc1ccc2[nH]c(=O)c(C(c3nnnn3CCOC)N3CCN(c4ccccc4)CC3)cc2c1 (centres undefined)
→ x, x, x, x, -3, 0.7, x, -4.3, 2, -0.3
Cc1c(C(=O)OCC(C)C)[nH]c2c1C(=O)CC(c1cccs1)C2 (centres undefined)
→ x, x, x, x, 17, 0.7, x, 4.8, 55*, 0.0
O=c1[nH]c(C2CCCN(S(=O)(=O)c3ccccc3)C2)nc2c1nnn2Cc1ccccc1F (centres undefined)
→ x, x, x, x, 13, 0.71, x, -1.5, 9, 0.1

New compounds follow:
SMILES | Ecoli rRNA inh | Ecoli rRNA inh OD600 | Ecoli rRNA inh RFP | FGF22 binding | Beta apoptosis | E coli growth | AF4-AF9 inh | UCH37 DUB inh | T cruzi repl | Bfl-1 A1 inh
COc1ccc(CN2CCNC(=O)C2CC(=O)NCCc2c[nH]c3ccccc23)c(OC)c1 (centres undefined) | 9 | -6 | -1.6 | x | -1 | 0.67 | 4.2 | -2.0 | -11 | -0.2
CC(=O)c1c(C)nn(CC(O)COc2ccc3c(c2)CCC3)c1C (centres undefined) | -22* | -14* | 2.6* | i | -2 | 0.61 | -5.0 | 4.3 | -5 | 0.0
CCN(CC)CCOCCOC(=O)C1(c2ccccc2)CCCC1 | -1 | -4 | -2.9 | i | x | 0.69 | -6.2 | 0.8 | 21 | 0.6
COC(=O)c1cc(OC)c(OC)cc1NC(=O)c1ccc(OC)c(OC)c1 | x | x | x | x | -6 | 0.73 | x | -224 | 20 | -0.5
O=C(Nc1ccc(-n2nncc2-c2ccco2)cc1)c1ccc(F)cc1 | x | x | x | x | 6 | 0.72 | x | 3.1 | 2 | -0.4
COCCN(CCOC)S(=O)(=O)c1ccc(C(=O)Nc2ccc(S(=O)(=O)Nc3nccc(C)n3)cc2)cc1 | 12 | 12 | 2.7 | i | 1 | 0.69 | -9.6 | 0.3 | -23 | 0.4
Cc1ccccc1NC(=O)CSc1ccsc1[N+](=O)[O-] | x | x | x | x | -13 | x | x | 0.6 | -6 | -0.4
Cc1cc[n+](CC(=O)c2ccc(NC(=O)c3ccccc3)cc2)cc1 | 3 | 2 | -3.1 | i | -3 | 0.69 | 0.1 | 4.5 | -9 | 0.6
COc1ccc(NC(=O)N(C)C[C@H]2Oc3ccc(NC(=O)C4CCCCC4)cc3C(=O)N([C@H](C)CO)C[C@@H]2C)cc1 | 4&11 | 4&2 | 0.2&-4.6 | i | -5 | 0.76 | -3.8&0.4 | 3.9 | x | 0.8
CCOC(=O)CNS(=O)(=O)CCN1C(=O)c2ccccc2C1=O | x | x | x | x | -3 | 0.68 | x | 3.8 | -8 | 1.3
COc1cccc(/C=C/C(=O)Nc2cccc(C(C)=O)c2)c1OC | -22 | -15 | 14 | i | -5 | 0.65 | -1.7 | -0.7 | 9 | -4.3
Cc1ccc(S(=O)(=O)N(CC(=O)Nc2ccccc2C(=O)O)c2ccccc2C)cc1 | -33 | -36 | -6.3 | x | 1 | x | -2.0 | x | 2 | -0.4
O=C(COC(=O)c1ccccn1)NCc1cccs1 | 12 | 7 | 0.3 | i | -3 | 0.63 | -1.3 | -0.1 | -7 | 0.9
O=C(NNS(=O)(=O)c1ccc(Cl)cc1)c1ccc(S(=O)(=O)N2CCCCC2)cc1 | -5 | 1 | -5.7 | i | 1 | 0.68 | -0.9 | 3.1 | -6 | 0.7
CC1CCC(NC(=O)C2CCC(CNS(=O)(=O)c3ccccc3)CC2)CC1 (centres undefined) | 0 | 7 | 0.8 | i | 2 | 0.68 | -0.9 | 1.0 | -6 | 1.1
CCC(=O)N(CCC(c1ccc(C)cc1)c1ccco1)Cc1ccco1 (centres undefined) | 8 | 10 | -10 | i | -4 | 0.69 | -5.2 | -0.4 | 10 | -0.8
COc1ccc(-c2csc3ncnc(NCCO)c23)cc1 | -21 | -22 | 0.2 | i | 3 | 0.74 | -5.6 | 4.6 | -25 | 0.0
O=C(CC1CCCCC1)NCc1cn2ccsc2n1 | x | x | x | x | 0 | 0.69 | x | 2.0 | 9 | 0.4
Cc1ccc2cc(CN(Cc3ccco3)C(=O)c3ccccc3)c(=O)[nH]c2c1C | x | x | x | x | 6 | 0.72 | x | -0.3 | 24 | 0.3
O=Cc1ccc(N2CCCCCC2)cc1 | x | x | x | x | -7 | 0.75 | x | 11 | -18 | -0.3
C=CCN(CC=C)Cc1c(C)[nH]c2ccc(C(=O)OCC)cc2c1=O | 7 | 1 | 0.3 | i | 3 | 0.69 | 3.3 | -15 | -8 | -0.2
O=C(CCC(=O)N1CCN(Cc2ccc(F)cc2)CC1)Nc1nnc(C2CCCCC2)s1 | 3 | 7 | 0.3 | i | 2 | 0.68 | -0.8 | -0.3 | 12 | -0.3
CC(C)c1nc2ccccc2n1CC(O)COC1CCCCC1 (centres undefined) | 7 | 2 | -0.4 | i | -9 | 0.68 | 1.9 | 3.1 | -3 | -0.6
CCS(=O)(=O)c1ccc2oc(SCC(=O)c3ccco3)nc2c1 | x | x | x | x | -7 | 0.76 | x | 1.8 | -5 | -0.9
CSc1ncnc2[nH]ncc12 | 7 | 10 | -1.5 | i | x | 0.66 | -1.4 | -1.6 | x | x
Cc1cccc(N2CCN(S(=O)(=O)c3ccc4[nH]c(=O)ccc4c3)CC2)c1C | -1 | -3 | 3.0 | i | 2 | 0.83 | 2.4 | 4.7 | 10 | -0.7
Clc1ccc(C2=NN(c3ccccc3)C(c3ccco3)C2)cc1 (centres undefined) | 0 | 8 | -0.5 | i | 5 | 0.67 | -0.3 | i | 19 | -0.8
Cc1ccccc1-c1nc(CN2CCCC(C(=O)NCc3cccnc3)C2)c(C)o1 (centres undefined) | x | x | x | x | 5 | 0.73 | x | -2.7 | 52 | 0.6

Not all compounds are listed; rates above refer to the full screens.
